# gsp ag: activates gsp, the McCune-Albright syndrome mutation | gsp mutant cells, cAMP HTRF, 30 min; control for the full effect not named in the record | Potency, µM (doses to about 76.9 µM), inactives show at the top dose activation (cAMP increase), actives largely listed as activators | 0.13% of 340,000 active | AID 624287; active = well fitted activation curve with a large enough effect; inconclusive = small, poorly fitted or top-dose-only effect, or another doubt; inactive = no such curve, though single readings can be large or run the other way; cell line not stated here;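 further: phosphodiesterase inhibitor Ro 20-1724 added with compounds to block cAMP breakdown; potency means the concentration at half of the fitted maximal effect; nearly all actives have a fitted effect of over 60% in size; about a fifth of the inactives were tested at one dose only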
#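 Cells stably selected in G418 were plated at 2000/well, grown 16-24 hr, then given compounds in DMSO with the PDE inhibitor […] (300 uM solution added) for 30 min at 37C; cAMP was read by HTRF.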
# Menin-MLL FL inh: menin-MLL binding inhibition, fluorescein peptide; AID 1766; FP activity change, % at 61.4 µM; Fluorescence polarization, fluorescein-MLL peptide displacement from menin; 290,000 tested, under 10 active; inconclusive = falling polarisation curve, or a change in total fluorescence; inactive = total fluorescence flat and polarisation flat or rising; no compound was filed as active; the % refers to the polarisation; negative = inhibition;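 further: % of control where 0% means no effect; inhibitors lower the polarisation; unlabelled MLL peptide was the positive control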
# gsp antagonist: antagonizes gsp, the McCune-Albright syndrome mutation; AID 624288; Potency, µM (top dose mostly 76.9 µM), for the others: at the top dose activity change, negative = inhibition, most hits filed as inhibitors; 0.4% of 340,000 active; gsp-mutant cells, cAMP HTRF, 30 min; control for the full effect not named in the record; active = falling curve of any shape with a large fitted effect; inconclusive = falling curve, mostly with a smaller effect; inactive = flat or rising curve; cell line not stated here;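 further: intracellular cAMP measured with PDE inhibitor Ro 20-1724 present during compound exposure; potency means the concentration at half of the fitted maximal effect; on the % scale 0 is the no-effect control and ±100 the full control effect; nearly all actives have a fitted effect of over 65% in size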
#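 HTRF cAMP read-out (cAMP-d2 plus anti-cAMP antibody-K in lysis buffer, 30 min RT). Before lysis, cells are exposed to compounds with […] for 30 min at 37C in DPBS containing Ca/Mg, BSA and Tween 20.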
# ClpP mod: qHTS Assay for Activators of ClpP | ATP-dependent Clp protease proteolytic subunit (Bacillus subtilis (strain 168)), P80244 | purified B. subtilis ClpP, FRET peptide cleavage, 20 min | Potency, µM (top dose mostly 57.5 µM), for inactives: top-dose activity change, negative = active | 1.9% of 340,000 active | AID 651965, 2013; active = well fitted falling curve with a large enough effect; inconclusive = small, poorly fitted or top-dose-only effect; inactive = no such curve, though single readings can be large or run the other way; further: potency means the concentration at half of the fitted maximal effect; the source files actives as falling curves though it sought activators and does not explain the sign; nearly all actives have a fitted effect of over 65% in size; many hits overshoot -100%
# Target sequence (P80244 whole entry, looked up): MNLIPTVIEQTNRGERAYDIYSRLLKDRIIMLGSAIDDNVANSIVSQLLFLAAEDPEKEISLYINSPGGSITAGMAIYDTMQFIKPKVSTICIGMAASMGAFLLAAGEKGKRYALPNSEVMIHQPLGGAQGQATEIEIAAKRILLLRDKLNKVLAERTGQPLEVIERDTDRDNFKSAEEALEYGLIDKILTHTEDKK
#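 FRET quenching reversal measured ClpP activation: 10 microg/mL B. subtilis ClpP at pH 8 with the FRET-FV decapeptide, read at 430 nm after 320 nm excitation. The 20-min minus 0-min signal was scaled between DMSO/no-enzyme wells and ADEP (5.8 microM final).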
# Sfp PPTase inh: inhibitors of Bacillus subtilis Sfp phosphopantetheinyl transferase; Biochemical Sfp PPTase activity, qHTS; Potency, µM, for the others: max response, negative = inhibition, usual class: inhibitors; 3.5% of 310,000 active; AID 1490; active means well fitted inhibition curve with a large enough effect; inconclusive means small, poorly fitted or top-dose-only effect, or another doubt; inactive means no such curve, though single readings can be large or run the other way;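 further: the enzyme is Sfp with the accession as filed and its product quenches rhodamine fluorescence; potency means the concentration at half of the fitted maximal effect; 0% = enzyme reaction without inhibitor and -100% = no enzyme wells; top concentration of the series not given in the record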
#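 Buffer: 50 mM Hepes-Na pH 7.6, 10 mM MgCl2, 0.01% Nonidet P-40, 0.01% BSA. Enzyme 15 nM, pre-exposed to compound 15 min; substrates then added and fluorescence change tracked over 30 min.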
# PINK1 modulator: PINK1 expression modulation | PINK1 immunofluorescence, high-content cytometry, 24 h | Potency, µM (titrated, usually from 76.6 µM), without a hit: top-dose activation (PINK1 increase), actives largely listed as activators | 0.2% of 410,000 active | AID 624263; active = well fitted activation curve with a large enough effect; inconclusive = small, poorly fitted or top-dose-only effect; inactive = flat fitted curve, though single readings scatter; cell line not stated here;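 further: potency means the concentration at half of the fitted maximal effect; % of control where 0% means no effect; nearly all actives have a fitted effect of over 65% in size; a mitochondrial uncoupler was the plate control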
#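 Fluorescence from anti-PINK1 antibody, together with nuclear and cell stains, was scanned on a laser-scanning cytometer. Before staining, stable-line cells were incubated 24 hours with compounds at 5 concentrations; primary antibody 12 h at 10 degrees C.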
# D2 ag: activates the human D2 dopamine receptor. P14416. DiscoveRx PathHunter D2 beta-arrestin, luminescence, 90 min; 100% = 57 uM dopamine signal. activation, % (test concentration not listed). 0.084% of 360,000 active. AID 624465; in the data active = activation above about 40%; inconclusive = about 15% to 40%; inactive = below about 15%; further: compound concentration not given in the record; the text of the record calls up to 30% inactive
# Target sequence (P14416 whole entry, looked up): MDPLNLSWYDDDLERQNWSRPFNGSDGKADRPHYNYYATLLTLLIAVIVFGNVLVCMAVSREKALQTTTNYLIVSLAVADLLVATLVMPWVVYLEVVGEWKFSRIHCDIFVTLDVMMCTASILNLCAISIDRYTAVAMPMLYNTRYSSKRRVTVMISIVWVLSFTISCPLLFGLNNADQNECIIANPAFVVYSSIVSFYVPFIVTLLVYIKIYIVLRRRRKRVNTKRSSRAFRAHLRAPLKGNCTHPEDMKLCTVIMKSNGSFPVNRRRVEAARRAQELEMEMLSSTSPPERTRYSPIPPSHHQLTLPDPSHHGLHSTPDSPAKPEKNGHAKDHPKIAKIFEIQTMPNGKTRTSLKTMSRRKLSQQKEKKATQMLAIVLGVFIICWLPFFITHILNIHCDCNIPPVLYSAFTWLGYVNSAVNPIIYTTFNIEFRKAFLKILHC
#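 DiscoveRx PathHunter D2 beta-arrestin cells (2,100/well) attached overnight, then compound-stimulated 90 min at 37 C in HBSS/10 mM HEPES/0.1% Tween-20 buffer; beta-galactosidase complementation read by luminescence after 1 h at ambient temperature. Dopamine 57 uM final (EC100) as control.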
# Active calls of the source: *; ? = inconclusive; · = no result given; & = joins results of further samples; [ ] = remark or other dose.
SMILES	gsp ag	Menin-MLL FL inh	gsp antagonist	ClpP mod	Sfp PPTase inh	PINK1 modulator	D2 ag
NS(=O)(=O)c1ccc(CCNC(=O)CSc2ccsc2[N+](=O)[O-])cc1	7%	0.7	2%	-4.4%	5%	-0.7%	0.7
O=C(CC[C@H]1O[C@@H](n2cnc3c(NC(=O)c4ccccc4)ncnc32)[C@H](O)[C@@H]1O)NCCCN1CCOCC1	·	·	·	0.2%	·	1.2%	-2.6
Cc1cccc2cc(CN(CC3CCCO3)C(=S)Nc3ccccc3)c(=O)[nH]c12 (stereo not drawn)	-8%	-0.6	10%	14%	10%	27%	-2.3
CC(C)n1ncc2c(C(=O)Nc3ccc(CC#N)cc3)cc(C3CC3)nc21	11%	·	-8%	-0.7%	·	5.4%	-1.1
c1ccc2c(C[C@@H]3CNCCN3CCC34CC5CC(CC(C5)C3)C4)cccc2c1	·	·	0%	-1.5%	·	-0.8%	-2.5
CC(=O)Nc1ccc(-c2ccnc3c2CC(C(=O)NCc2ccco2)O3)cc1 (stereo not drawn)	·	·	·	4.2%	·	6.3%	-1.5
COC(=O)c1cc(C#N)c(Oc2cccc(C)c2C)nc1C	-8%	-0.6	-3%	0.7%	-22%	0.1%	1.5
CCN(CC(=O)NCc1cccs1)C(=O)c1ccc(S(=O)(=O)N(C)C)cc1	3%[15.4 µM]	2.6	·	·	9%	1.0%	-3.2
COc1ccc(N2CCN(C(=O)c3cc4c(C)nc5ccccc5c4o3)CC2)cc1	?	-2.1	?	-3.5%	-17%	-0.9%	1.4
Cn1cccc1C(=O)OCc1nc2ccccc2c(=O)[nH]1	?	·	-3%	-3.2%	·	1.7%	4.2
O=C(Cc1c(Cl)cccc1Cl)Nc1cccnc1	6%	5.9	5%	·	14%	3.8%	0.3
Cc1cc(C)c(OCC(O)CN2CCN(C(=O)c3ccccc3)CC2)c(C)c1 (stereo not drawn)	3%	-7.3	-1%	-0.3%	-18%	-0.5%	-3.0
Fc1ccc(N2N=C(c3cccs3)CC2c2ccccc2)cc1 (stereo not drawn)	0%[15.4 µM]	9.9	8%	·	-4%	?	2.3
Brc1cc2c(cc1C1OCCCO1)OCO2	0%	·	3%	-1.9%	·	-2.5%	-0.6
COc1ccccc1NC(=O)COC(=O)c1ccccc1C(=O)N1CCN(c2ccccc2)CC1	-2%[15.4 µM]	?	-7%	-2.0%	-1%	2.6%	-2.6

# For reference, some entries already given.
SMILES	gsp ag	Menin-MLL FL inh	gsp antagonist	ClpP mod	Sfp PPTase inh	PINK1 modulator	D2 ag
Cn1cccc1C(=O)OCc1nc2ccccc2c(=O)[nH]1	?	·	-3%	-3.2%	·	1.7%	4.2
O=C(Cc1c(Cl)cccc1Cl)Nc1cccnc1	6%	5.9	5%	·	14%	3.8%	0.3

# (continued)
SMILES	gsp ag	Menin-MLL FL inh	gsp antagonist	ClpP mod	Sfp PPTase inh	PINK1 modulator	D2 ag
CCOc1c(Cl)cc(/C=C/C(=O)N(CC)CC(=O)NCc2cccs2)cc1OC	-33%[inhibitor]	·	-7%	-26%	·	3.0%	-1.8
Nc1ccc(-c2nc3ccc(C(=O)O)cc3s2)cc1	1%	8.0	-17%	-51%	56µM*	-1.1%	-1.2
COC(=O)c1ccc(N=Cc2c(C(F)(F)F)[nH]n(C)c2=O)cc1	-18%	-1.9	6%	1.7%	-8%	1.0%	-3.0
O=C(COC(=O)c1cccnc1Cl)NCc1ccco1	0%[15.4 µM]	2.4	0%	·	-1%	0.7%	-2.3
Cc1cccc(C)c1N1CCN(C(=O)Cn2cncn2)CC1	9%[15.4 µM]	-4.2	6%	-0.3%	13%	0.2%	-4.8
O=C(Cn1ccc(NC(=O)OCc2ccccc2)nc1=O)NCCc1ccccn1	-7%	·	6%	0.6%	·	-0.4%	-3.8
CC1CCc2c(c3ccccc3[nH]c2=O)O1 (stereo not drawn)	5%	-0.9	5%	-7.6%	11%	-1.6%	-3.0
CCn1c(COc2c(C)cccc2C)nnc1SCc1nc2ccccc2c(=O)[nH]1	?	-0.3	-10%	·	12%	8.1%	3.6
Clc1cccc(CN2CCc3c([nH]c4ccccc34)C2)c1Cl	27%	-1.6	7%	-22%	-16%	-0.9%	-8.7
Cc1ccc(-c2cnc(C(O)c3c(C)cccc3C)[nH]2)cc1 (stereo not drawn)	·	·	·	-2.8%	·	0.0%	-2.8
COc1ccccc1NC(=O)C(C)Sc1nccn1C (stereo not drawn)	-48%[inhibitor]	·	0%	1.4%	·	1.3%	1.2
CCCCNc1nnc(SCC(=O)c2c(N)n(CCC)c(=O)[nH]c2=O)s1	2%	·	-4%	0.3%	·	1.3%	-3.2
Cc1cc(NC(=O)C2C3C(=O)N(CCC(C)C)C(C(=O)NCc4ccccc4)C34C=CC2(C)O4)no1 (stereo not drawn)	-45%[inhibitor]	2.3	12%	-0.3%	1%	2.8%	-2.8
C=CCSc1ncc(-c2ccccc2)cn1	7%[15.4 µM]	2.7	-5%	·	13%	2.1%	-2.9
Cc1cc(C(=O)N/N=C2\CC(=O)CC(C)(C)C2)c2ccccc2n1	-18%	?	-5%	0.6%	4%	1.1%	-2.4
CC[C@@H](C)[C@@H]1CN([C@@H](C)CN2CCC[C@H]2CN2C(N)=NC[C@@H]2Cc2ccccc2)C(=N)N1CCCC1CCCC1	12%	·	4%	-3.2%	·	0.0%	-2.7
Cc1c(Nc2cc(N3CCCC(C)C3)c3nonc3c2[N+](=O)[O-])c(=O)n(-c2ccccc2)n1C (stereo not drawn)	-14%[15.4 µM]	-0.5	1%	-0.6%	4%	9.1%	1.6
COc1ccc(N2Cc3ccc(OC)c(OC)c3C2=O)cc1	21%	0.4	4%	-5.9%	7%	-0.9%	-9.9
CSc1ccccc1NC(=O)CN(C)CC(=O)Nc1ccccc1C(F)(F)F	-4%[15.4 µM]	3.6	15%	·	0%	1.4%	-1.3
O=C(N/N=C/c1ccc([N+](=O)[O-])o1)c1ccc(O)cc1	·	5.1	-17%	1.0%	-20%	?	2.5
Cc1ccccc1N(C(=O)Cc1c[nH]c2ccccc12)C(C(=O)NC1CCCCC1)c1ccco1 (stereo not drawn)	-1%	5.0	1%	-3.3%	-1%	3.5%	-6.1
O=S(=O)(Nc1ccccc1O)c1cccc2cccnc12	4%[15.4 µM]	0.0	4%	·	-21%	2.3%	2.4
O=C(Cc1n[nH]c(=O)c2ccccc12)Nc1ccc(-c2nnc3n2CCCCC3)cc1	5%	5.1	-7%	-3.6%	10%	-2.1%	-1.8
COc1ccccc1/C=[N+](\[O-])C1SC(=S)N(C)C1(C)C (stereo not drawn)	-2%	3.0	1%	-3.4%	22%	1.6%	-2.3
COc1ccc(CC(=O)N2CCN(c3ccc(C4=NNC(=O)CC4C)cc3)CC2)cc1 (stereo not drawn)	-23%	-2.6	0%	28µM*	16%	0.0%	0.9
COc1cc(/C=N/NC(=Nc2ccc(C)cc2)c2nc3ccccc3s2)ccc1O	5%	1.5	?	-8.8%	-15%	0.7%[38.3 µM]	-2.7
CCOC(=O)N1CCN(C(=O)CSCc2nc(-c3ccccc3F)oc2C)CC1	-89%[inhibitor]	2.2	?	?	-1%	·	-0.1
Cc1c(Br)c([N+](=O)[O-])nn1C(C)C(=O)N1CCCc2ccccc21 (stereo not drawn)	2%	5.0	-11%	-0.3%	-5%	0.7%[38.3 µM]	-3.1
c1ccc2c(c1)[nH]c1c(N3CCC4(CC3)OCCO4)ncnc12	-26%	2.1	32µM*	28µM*	-4%	0.0%	3.9
CC(C)CC(=O)NC(NC(=O)CC(C)C)c1cccc([N+](=O)[O-])c1	2%[15.4 µM]	-6.5	3%	·	23%	8.3%	-0.5
COc1ccc(-c2c(C(C)=O)c(C)nc3sc4c(=O)[nH]nnc4c23)cc1	16%	-1.6	-7%	2.0%	10%	-0.4%	0.1
Cc1ccc(CN2[C@@H]3c4ccccc4C[C@@H]3OCCS2(=O)=O)cc1	-28%	-2.6	-4%	-1.6%&-2.7%	15%	0.0%	-3.0
Cc1ccccc1CSCC(=O)NC(=O)NCc1ccco1	-21%	0.0	0%	-1.6%	8%	0.1%[38.3 µM]	1.9
COC(=O)C1CN(C(=O)COc2ccc(Cl)cc2C)c2ccccc2O1 (stereo not drawn)	-21%	-2.1	-15%	-0.6%	2%	-1.3%	4.9
O=C(CSc1nnc(Cc2cccs2)n1C1CC1)NC1CCS(=O)(=O)C1 (stereo not drawn)	-58%[inhibitor]	·	3%	-0.6%	·	-0.3%	4.3
COc1cc(OC)cc(-c2noc([C@@H]3O[C@H](CO)[C@H](O)[C@H](O)[C@H]3O)n2)c1	·	·	·	-3.2%	·	1.2%	-2.9
CCOc1ccc2[nH]c(=O)c(CN(CCO)C(=O)c3ccc(OC)c(OC)c3)cc2c1	16%	1.5	8%	28µM*	12%	9.3%[38.3 µM]	-2.0
O=C(Nc1nc(-c2ccc(Cl)cc2)cs1)C1CCCO1 (stereo not drawn)	-22%[15.4 µM]	-3.1	15%	·	16%	3.5%	1.2
CC1([N+](=O)[O-])COC(c2cccc3ccccc23)OC1 (stereo not drawn)	-15%[15.4 µM]	·	9%	0.4%	·	1.4%	-0.4
O=C1NCCN(C(=O)CCc2nnc(-c3ccsc3)o2)C1c1ccc(F)cc1 (stereo not drawn)	19%	0.6	10%	-0.6%	11%	-0.7%	1.4
COc1cccc(C(NC(C)=O)c2nc(-c3cccc(C#N)c3)cs2)c1 (stereo not drawn)	·	·	·	-1.1%	·	1.6%	-6.5
COc1ccc(CCNCC(=O)Nc2ccccc2C(F)(F)F)cc1	7%[15.4 µM]	1.9	9%	·	-12%	0.3%	-0.2

# Bioassay records: PubChem, National Center for Advancing Translational Sciences (NCATS)
